Bioassay records: PubChem, Southern Research Institute
Mtb H37Rv: Mycobacterium tuberculosis H37Rv growth inhibition, cell based, confirmatory dose response (AID 1949); most inactive calls were filed without a number and no value below 0 was filed; one-dose inhibition, % at 10 µg/mL; IC50 in µg/mL for titrated hits; 100,000 tested, 1.6% active;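 active = confirmed in a dose series; inconclusive = about 50% or more but not retested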;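 also: bacteria grown 7 days with compound before Alamar blue readout; 0% = untreated bacteria and 100% = reference antibiotic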
The depositor's hits bear a star. The list is partial, so the mix of outcomes need not match the whole.

Results for CCOc1ccccc1NC(=S)NCc1ccc(Cl)cc1Cl ?
Mtb H37Rv: inactive

Results for O=C(NC(c1ccccc1)c1ccccc1)C1CCCC1 ?
Mtb H37Rv: 4%

What do the screens show for `O=C(NCC1OCCc2ccccc21)c1ccc(F)cc1` (stereo not drawn)?
Mtb H37Rv: inactive

Results for O=C(CNC(=O)c1ccc(Br)o1)OC(c1ccccc1)c1ccccc1 ?
Mtb H37Rv: 2%

How did CCOC(=O)c1c(CC(C)C)csc1NC(=O)c1ccc(F)cc1 do in these assays?
Mtb H37Rv: inactive

How did CC1(C)CC(N)CC(C)(C)N1 do in these assays?
Mtb H37Rv: inactive

Results for Clc1ccc(OCCN2CCOCC2)c(Br)c1 ?
Mtb H37Rv: inactive

How did O=C(NCc1ccccc1)NCC12CC3CC(CC(C3)C1)C2 do in these assays?
Mtb H37Rv: inactive

What do the screens show for `COc1cc(NC(=S)Nc2ccc(N(C)C(C)=O)cc2)cc(OC)c1`?
Mtb H37Rv: inactive

Results for Fc1ccc(OCc2nc(-c3ccc(Br)cc3)no2)cc1 ?
Mtb H37Rv: 7%

The last 2 compounds of the part before lead into the next.
What do the screens show for `COc1cc(NC(=S)Nc2ccc(N(C)C(C)=O)cc2)cc(OC)c1`?
Mtb H37Rv: inactive

Results for Fc1ccc(OCc2nc(-c3ccc(Br)cc3)no2)cc1 ?
Mtb H37Rv: 7%

How did Cc1ccc(C(=O)NC(=S)Nc2cc(C(F)(F)F)ccc2Cl)c(C)c1 do in these assays?
Mtb H37Rv: inactive

Results for Cc1ccc(S(=O)(=O)NNC(=S)Nc2cccc(C)c2C)cc1 ?
Mtb H37Rv: inactive

Results for Cc1cc(Br)ccc1NC(=O)c1ccc(C(C)C)cc1 ?
Mtb H37Rv: inactive

What do the screens show for `O=c1oc2cc3occ(-c4ccc(Cl)cc4)c3cc2c2ccccc12`?
Mtb H37Rv: inactive

What do the screens show for `O=C1c2oc3ccccc3c(=O)c2C(c2ccccc2)N1c1ccccc1` (stereo not drawn)?
Mtb H37Rv: 0%

Results for CC(O)CC(=O)NNC(=O)Nc1ccc(F)cc1F (stereo not drawn) ?
Mtb H37Rv: inactive

How did NS(=O)(=O)c1ccc(NC(=O)CSc2nc(O)c(Cc3ccccc3)c(=O)[nH]2)cc1 do in these assays?
Mtb H37Rv: inactive

Results for CCOCCC(=O)Nc1ccc(OC)cc1 ?
Mtb H37Rv: inactive

How did CCCSc1nc2sc3c(c2c2nncn12)CCC3 do in these assays?
Mtb H37Rv: 43%

Results for Cn1cnnc1SCC(=O)n1c2ccccc2c2ccccc21 ?
Mtb H37Rv: inactive

How did CCOC(=O)c1ccc(NC(=O)CSc2nc(N)cc(=O)[nH]2)cc1 do in these assays?
Mtb H37Rv: inactive

Results for CSc1ccccc1C(=O)Nc1cccc(C(F)(F)F)c1 ?
Mtb H37Rv: inactive

What do the screens show for `Cc1ccc2nc(-c3ccc(N4C(=O)CC(N5CC(C)OC(C)C5)C4=O)cc3)sc2c1` (stereo not drawn)?
Mtb H37Rv: inactive

Results for CC(=O)COc1nc2c(C(F)(F)F)cc(-c3ccc4c(c3)OCO4)nc2o1 ?
Mtb H37Rv: 4%

Results for O=c1oc2c3ccccc3oc(=O)c2c2ccccc12 ?
Mtb H37Rv: inactive

What do the screens show for `CN(C1=NC(=O)/C(=C\c2ccccc2Cl)S1)c1ccc(O)cc1`?
Mtb H37Rv: inactive

What do the screens show for `CN(Cc1nc2ccccc2n1C)S(C)(=O)=O`?
Mtb H37Rv: inactive

Results for CN(C)C(=S)NC(=O)C(c1ccccc1)c1ccccc1 ?
Mtb H37Rv: inactive

What do the screens show for `CNC(=O)CCn1nc(-c2ccc(C)cc2)c2ccccc2c1=O`?
Mtb H37Rv: inactive

How did Cc1ccccc1NS(=O)(=O)c1ccc(N2CCCC2=O)cc1 do in these assays?
Mtb H37Rv: inactive

How did Cc1ccc2[nH]c(=O)c(N3CCOCC3)c(-c3ccccc3)c2c1 do in these assays?
Mtb H37Rv: inactive

What do the screens show for `CCCCc1cc2c(c(NC(=O)CC)n1)c(=O)oc1ccccc12`?
Mtb H37Rv: inactive

How did O=C(Nc1ccn(Cc2ccc(Cl)cc2)n1)c1ccccc1 do in these assays?
Mtb H37Rv: 8%

What do the screens show for `COC(=O)c1sc2cc(NC(=S)NC3CCCc4ccccc43)ccc2c1Cl` (stereo not drawn)?
Mtb H37Rv: 1%

Results for CCN(CC)C(=O)c1ccccc1NS(=O)(=O)c1ccc(C)cc1 ?
Mtb H37Rv: 4%

Results for Cc1ccc(-c2nn3c(C)nnc3s2)cc1NC(=O)c1cccs1 ?
Mtb H37Rv: inactive

How did CC(=O)Nc1ccc(S(=O)(=O)N2CCN(C(=O)c3ccccc3)CC2)cc1 do in these assays?
Mtb H37Rv: inactive

Results for COc1ccc(OCCCC(=O)Nc2nnc(C3CCCCC3)s2)cc1 ?
Mtb H37Rv: 0%

What do the screens show for `Cc1cccc(N2C(=O)NC(=O)/C(=C\c3cccn3-c3ccc(N(C)C)cc3)C2=O)c1`?
Mtb H37Rv: inactive

Results for O=C(Nc1ccc(Br)cc1)C(=O)NC1CC1 ?
Mtb H37Rv: inactive

What do the screens show for `Cc1ccnc(NC(=O)Cc2ccc(Cl)cc2)n1`?
Mtb H37Rv: inactive

How did CCN(CC)S(=O)(=O)c1ccc(NC(=O)c2ccccc2I)cc1 do in these assays?
Mtb H37Rv: inactive

What do the screens show for `O=C(CN(c1ccccc1Cl)S(=O)(=O)c1ccccc1)Nc1ccc(F)cc1F`?
Mtb H37Rv: inactive

How did COC(=O)c1sccc1NC(=O)c1ccc(Cl)s1 do in these assays?
Mtb H37Rv: inactive

Results for O=C(CNS(=O)(=O)c1ccc(Cl)cc1)Nc1ccc(I)cc1 ?
Mtb H37Rv: inactive

Results for N#Cc1cc2c(=O)n3ccccc3nc2n(Cc2ccco2)c1=NC(=O)c1cccc([N+](=O)[O-])c1 ?
Mtb H37Rv: inactive

What do the screens show for `COc1ccc(CN2CCN(C(=O)c3ccco3)CC2)cc1OCc1ccccc1`?
Mtb H37Rv: 1%

Results for Cc1c(C(=O)Nc2nnc(CCc3ccccc3)s2)cccc1[N+](=O)[O-] ?
Mtb H37Rv: inactive

What do the screens show for `O=C(NNC(=S)NCc1ccc(Cl)cc1)c1ccccn1`?
Mtb H37Rv: inactive

How did Cc1ccc(C(=O)NC(=S)Nc2ccccc2C(N)=O)cc1C do in these assays?
Mtb H37Rv: inactive

What do the screens show for `COC(=O)C(C)Oc1ccc(C2NC(=S)NC(C)=C2C(=O)Nc2ccccc2OC)cc1OC` (stereo not drawn)?
Mtb H37Rv: inactive

What do the screens show for `COc1ccc(C(=O)Nc2nc3ccccc3n2CCOc2cccc(C)c2)cc1`?
Mtb H37Rv: inconclusive

How did Cc1ccc(-c2cc(C(=O)Nc3nnc(-c4ccncc4)s3)c3ccccc3n2)o1 do in these assays?
Mtb H37Rv: inconclusive

Results for O=S(=O)(Nc1cccc(O)c1)c1cc(Cl)ccc1Cl ?
Mtb H37Rv: inactive

Results for COc1ccccc1/C=C1\SC(=S)N(NC(=O)c2cccnc2)C1=O ?
Mtb H37Rv: inactive

What do the screens show for `CC(C)CC(=O)Nc1ccc2oc(-c3cccc(I)c3)nc2c1`?
Mtb H37Rv: 7%

How did Cc1cc2c(cc1C)C(c1ccccc1F)CC(=O)N2 (stereo not drawn) do in these assays?
Mtb H37Rv: inactive

Results for CC(C)(C)c1ccc(C(=O)Nc2ccc(C(N)=O)cc2)cc1Br ?
Mtb H37Rv: inactive

Results for COc1ccc(N(CC(=O)Nc2ccccc2F)S(C)(=O)=O)cc1 ?
Mtb H37Rv: inactive

Results for FC(F)(F)c1ccc(Oc2cccc(C(F)(F)F)c2)nc1 ?
Mtb H37Rv: 2%

How did CCSc1nc(O)cc(=O)n1CC do in these assays?
Mtb H37Rv: 8%

What do the screens show for `COc1ccc(NC(=O)CC23CC4CC(C2)CC(c2ccccc2)(C4)C3)cc1`?
Mtb H37Rv: 3%

What do the screens show for `O=C(Cc1ccc(Cl)cc1)Nc1ccc(S(=O)(=O)N2CCCC2)cc1`?
Mtb H37Rv: inactive

Results for COC(=O)c1cccc(NC(=O)Cc2ccc(Cl)cc2)c1C ?
Mtb H37Rv: inactive

How did Cc1nc(C)n(C(=O)c2cccs2)n1 do in these assays?
Mtb H37Rv: inactive

Results for CCSCCOC(=O)C1=C(C)NC2=C(C(=O)CC(c3cccs3)C2)C1c1ccc(C)s1 (stereo not drawn) ?
Mtb H37Rv: inactive

What do the screens show for `CCn1c(SCC(=O)Nc2ccc(F)cc2)nnc1-c1ccc(Cl)cc1Cl`?
Mtb H37Rv: inactive

Results for CC1=NN(C(=O)CC#N)C(O)(c2ccc(F)cc2)C1 (stereo not drawn) ?
Mtb H37Rv: inactive

How did CCOC(=O)N1CCN(C(=O)CN(c2cccc3ccccc23)S(C)(=O)=O)CC1 do in these assays?
Mtb H37Rv: inactive

What do the screens show for `CC(C)(C)CC(=O)NC(=S)NCc1ccccc1`?
Mtb H37Rv: 5%

How did COc1ccc(NC(CC(=O)c2ccc(Br)cc2)c2ccccc2)cc1 (stereo not drawn) do in these assays?
Mtb H37Rv: 20%

Results for COc1cc(NC(=S)NC(=O)c2c(OC)cccc2OC)ccc1NC(=O)C(C)C ?
Mtb H37Rv: inactive

Results for Cc1nc(NC(=O)COc2ccc(Br)cc2)sc1C ?
Mtb H37Rv: inconclusive

How did O=S(=O)(Nc1ccccc1Sc1ccccc1)c1cccs1 do in these assays?
Mtb H37Rv: inactive

What do the screens show for `Fc1ccc(Cn2cnc(NC(=S)Nc3cccc(C(F)(F)F)c3)n2)c(Cl)c1`?
Mtb H37Rv: 2%

What do the screens show for `NC(=O)c1ccc(NC(=O)c2cnccn2)cc1`?
Mtb H37Rv: inactive

What do the screens show for `CC(=O)Oc1ccc2c(=O)c(C=O)coc2c1`?
Mtb H37Rv: inactive

Results for CCOC(=O)N1CCN(CC(O)COc2ccccc2C(C)(C)C)CC1 (stereo not drawn) ?
Mtb H37Rv: 11%

Results for COc1ccc(C2C=C(c3ccc(F)cc3)NC(=S)N2)cc1OC (stereo not drawn) ?
Mtb H37Rv: inactive

How did O=S(=O)(c1ccccc1)N1N=C(c2ccccc2)CC1c1ccco1 (stereo not drawn) do in these assays?
Mtb H37Rv: 3%

How did CCOC(=O)c1c(NC(=O)C(CC)N2C(=O)c3ccccc3C2=O)sc2c1CCCCC2 (stereo not drawn) do in these assays?
Mtb H37Rv: inactive

Results for C=CCOc1ccc(S(=O)(=O)c2ccc(OCC=C)cc2)cc1 ?
Mtb H37Rv: 4%

What do the screens show for `COC(=O)c1ccc(Cn2cnc3sc(C)c(C)c3c2=O)cc1`?
Mtb H37Rv: 37%

What do the screens show for `Cc1ccccc1C(=O)Nc1ccc(N2CCCCCC2)cc1`?
Mtb H37Rv: 3%

What do the screens show for `COc1ccc(C)c(Cn2c(-c3nonc3N)nc3ccccc32)c1`?
Mtb H37Rv: inactive

Results for Cc1cc([N+](=O)[O-])ccc1N=C1N=C(N)c2ccccc21 ?
Mtb H37Rv: inactive

What do the screens show for `Cc1ccc(N(Cc2ccc(C(=O)N3CCCC3)cc2)S(C)(=O)=O)cc1C`?
Mtb H37Rv: inactive

What do the screens show for `CCOCCCNC(=O)c1ccc(Cl)c(Cl)c1`?
Mtb H37Rv: inactive

How did CCN(CC)C(=O)C(=O)N1CCN(c2ccccc2F)CC1 do in these assays?
Mtb H37Rv: inactive

How did O=C(Nc1ccc(OC(=O)N(c2ccccc2)c2ccccc2)cc1)N1CCOCC1 do in these assays?
Mtb H37Rv: inactive

How did CC1=Nc2ccccc2N=C(NC(=O)CSc2nnnn2-c2ccccc2)C1c1ccccc1 (stereo not drawn) do in these assays?
Mtb H37Rv: inactive

Results for O=C(NC1CCCCC1)c1cnn2c1NC(c1ccccc1)CC2C(F)(F)F (stereo not drawn) ?
Mtb H37Rv: inactive

How did Cc1c(OC(C)C)ccc2c3c(c(=O)oc12)CCC3 do in these assays?
Mtb H37Rv: 5%

How did COc1ccc(C(=O)Nc2sc3c(c2C(N)=O)CCCCC3)cc1Br do in these assays?
Mtb H37Rv: inactive

What do the screens show for `COc1cc(/C=C/c2cc(C(F)(F)F)[nH]c(=O)n2)ccc1Oc1nc2c(c(=O)n(C)c(=O)n2C)n1C`?
Mtb H37Rv: inactive

How did CN(C)CCNC(=O)c1ccc(COc2ccc(Cl)cc2Cl)cc1 do in these assays?
Mtb H37Rv: inconclusive

How did COc1ccc(NC(=O)CN(Cc2ccc(C)cc2)S(=O)(=O)c2ccc(Cl)cc2)c(OC)c1 do in these assays?
Mtb H37Rv: 2%

What do the screens show for `O=C(CSCc1ccccc1)Nc1ccc(-c2ccc([N+](=O)[O-])cc2)cc1`?
Mtb H37Rv: inactive

Gathered by group: the compounds so far containing a thiophene ring, fused or not.
How did CCOC(=O)c1c(CC(C)C)csc1NC(=O)c1ccc(F)cc1 do in these assays?
Mtb H37Rv: inactive

How did CCCSc1nc2sc3c(c2c2nncn12)CCC3 do in these assays?
Mtb H37Rv: 43%

What do the screens show for `COC(=O)c1sc2cc(NC(=S)NC3CCCc4ccccc43)ccc2c1Cl` (stereo not drawn)?
Mtb H37Rv: 1%

Results for Cc1ccc(-c2nn3c(C)nnc3s2)cc1NC(=O)c1cccs1 ?
Mtb H37Rv: inactive

How did COC(=O)c1sccc1NC(=O)c1ccc(Cl)s1 do in these assays?
Mtb H37Rv: inactive

How did Cc1nc(C)n(C(=O)c2cccs2)n1 do in these assays?
Mtb H37Rv: inactive

Results for CCSCCOC(=O)C1=C(C)NC2=C(C(=O)CC(c3cccs3)C2)C1c1ccc(C)s1 (stereo not drawn) ?
Mtb H37Rv: inactive

How did O=S(=O)(Nc1ccccc1Sc1ccccc1)c1cccs1 do in these assays?
Mtb H37Rv: inactive

How did CCOC(=O)c1c(NC(=O)C(CC)N2C(=O)c3ccccc3C2=O)sc2c1CCCCC2 (stereo not drawn) do in these assays?
Mtb H37Rv: inactive

What do the screens show for `COC(=O)c1ccc(Cn2cnc3sc(C)c(C)c3c2=O)cc1`?
Mtb H37Rv: 37%

How did COc1ccc(C(=O)Nc2sc3c(c2C(N)=O)CCCCC3)cc1Br do in these assays?
Mtb H37Rv: inactive
